High-throughput results from PubChem.
total CFTR: compounds raising F508del-CFTR protein level – cell-based, HeLa F508del-CFTR, immunofluorescence, viability, primary screen (AID 1224863). HeLa F508del-CFTR, immunofluorescence total CFTR, 24 h; by the record results were divided by relative cell number; some inactives read as strong as hits. 10,000 tested, 0.1% active. calls, or highest fold increase where a dose series was run; in the data nearly all actives have a first-pass fold increase above 1.5; a few of its hits are not listed in these tables;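 further: total CFTR protein by anti-CFTR immunofluorescence in fixed cells; first pass at 25 µM or 10 µg/mL by library and series up to twice that; 1 = untreated cells; first-pass hits also needed half or more of the cells alive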
total CFTR fold 25 µM: second read-out of total CFTR, no call of its own (marks repeat the call); fold increase; measured here: primary screen single dose 25 uM; library dosed in µM
total CFTR fold 10 ug/mL: recorded beside total CFTR, whose call it bears; fold increase; measured here: primary screen 10 ug/mL
total CFTR viability 25 µM: second read-out of total CFTR, no call of its own (marks repeat the call); viability, %; measured here: primary viability 25 uM; library dosed in µM;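 0% = killed and 100% = untreated cells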
total CFTR viability 10 ug/mL: further read-out of total CFTR, marked with its call; viability, %; measured here: primary viability 10 ug/mL;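 0% = killed and 100% = untreated cells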
Starred values were filed as active, the others as inactive; i = inactive; / = not tested or not shown; & = joins results of further samples. Some of the compounds tested, so the mix of outcomes need not match the whole.

A first look, 3 compounds:
SMILES | total CFTR | total CFTR fold 10 ug/mL | total CFTR viability 10 ug/mL | others
Cc1cc(C(=O)CSc2nc3sc4c(c3c(=O)[nH]2)CCCC4)c(C)n1CC(F)(F)F | i | 0.7 | 86
[O-][n+]1cccc(CO)c1 | i | / | / | total CFTR fold 25 µM=1.1;total CFTR viability 25 µM=90
CC(Sc1nc(N)c2c3c(sc2n1)CCCCC3)C(=O)NC(N)=O (centres undefined) | i | 0.96 | 80

The listing, from the first entry:
SMILES | total CFTR | total CFTR fold 10 ug/mL | total CFTR viability 10 ug/mL | others
Cc1cc(C(=O)CSc2nc3sc4c(c3c(=O)[nH]2)CCCC4)c(C)n1CC(F)(F)F | i | 0.7 | 86
[O-][n+]1cccc(CO)c1 | i | / | / | total CFTR fold 25 µM=1.1;total CFTR viability 25 µM=90
CC(Sc1nc(N)c2c3c(sc2n1)CCCCC3)C(=O)NC(N)=O (centres undefined) | i | 0.96 | 80
CCN(CC)C(CNc1ccc2nnnn2n1)c1ccccc1 (centres undefined) | i | 0.96 | 101
N#Cc1nncn1-c1ncnc2sc3c(c12)CCC3 | i | 1.1 | 95
CC(Sc1nncn1-c1ccccc1)c1nc2ccccc2n1C(F)F (centres undefined) | i | 0.99 | 95
CC(C)n1nnnc1SCc1cn2cc(Cl)ccc2n1 | i | 0.98 | 88
Cc1noc(COC(=O)c2cc(Cl)c3c(c2)OCCO3)n1 | i | 0.98 | 101
Cc1ccc(CN(C)c2ccc(S(C)(=O)=O)cc2S(C)(=O)=O)c(C)c1 | i | 1 | 86
CC1CC1C(=O)N1CCCC(NS(C)(=O)=O)C1 (centres undefined) | i | 0.99 | 100
CCC1(c2ccc(F)cc2)NC(=O)N(CC(=O)C(C)(C)C)C1=O (centres undefined) | i | 0.93 | 94
CC(=O)NCc1ccc(-c2csc(NC(=O)c3cccs3)n2)s1 | i | 1 | 90
CC(C)CNc1nc(-c2nc3ccccc3s2)cs1 | i | 0.98 | 87
O=c1[nH]c(-c2cccs2)no1 | i | 1 | 97
O=C(NC1CCCCCCC1)c1cc(Br)c[nH]1 | i | 0.98 | 61
Clc1cccc(-n2ncc3c2/C(=C\c2ccccc2)CC3)c1 | i | 1.1 | 86
CO[C@@]12[C@@H]3NC3CN1C1=C(C(=O)C(N)=C(C)C1=O)[C@@H]2COC(N)=O (some centres undefined) | i | / | / | total CFTR fold 25 µM=0.62;total CFTR viability 25 µM=43
COCC(C)NC(=O)c1ccoc1C (centres undefined) | i | 0.94 | 99
CN(C(=O)c1ccc(=O)[nH]n1)C1CCc2ccccc21 (centres undefined) | i | 1 | 97
O=C1NC(c2ccccc2)(c2ccccc2)C(=O)N1CN1CCCC1c1ccc2c(c1)OCCO2 (centres undefined) | i | 0.95 | 109
Brc1ccc(-c2nnc(SCc3cn4ccccc4n3)n2C2CCCCC2)cc1 | i | 0.96 | 106
CC(NS(=O)(=O)c1ccc(S(C)(=O)=O)cc1)C(c1ccccc1)c1ccccc1 (centres undefined) | i | 0.97 | 98
COc1ccc(-c2cc3ncnc(N4CCN(C)CC4)c3s2)cc1 | i | 1 | 86
c1cnc2c(CNCCc3ccc(-n4cccn4)cc3)cccc2c1 | i | 1.1 | 86
Nc1cc(Br)c(Br)cc1C(=O)O | i | 1.1 | 103
NCC(O)CC(=O)O (centres undefined) | i | / | / | total CFTR fold 25 µM=1.2;total CFTR viability 25 µM=102
CCS(=O)(=O)N1CCc2cc(C(=O)CN3C(=O)NC4(CCS(=O)(=O)c5ccc(F)cc54)C3=O)ccc21 (centres undefined) | i | 1 | 95
O=c1n(Cc2cc(-c3cccs3)on2)nnn1-c1cccs1 | i | 1 | 92
CC(Sc1nc2ccsc2c(=O)n1C)C(=O)NC1CCCCCC1 (centres undefined) | i | 0.96 | 84
Cc1ccc(NC(=O)c2ccc(CN3CCN(C)CC3)cc2)cc1Nc1nccc(-c2cccnc2)n1 | i | / | / | total CFTR fold 25 µM=1.1&1.1;total CFTR viability 25 µM=86&89
O=[N+]([O-])c1cccc(S(=O)(=O)N2CCN(c3ccc4nnnn4n3)CC2)c1 | i | 1.1 | 101
CCC(C)C1NC(=O)C(CCNCS(=O)(=O)O)NC(=O)C(NC(=O)C(CCNCS(=O)(=O)O)NC(=O)C(NC(=O)C(CCNCS(=O)(=O)O)NC(=O)CCCCC(C)C)C(C)O)CCNC(=O)C(C(C)O)NC(=O)C(CCNCS(=O)(=O)O)NC(=O)C(CCNCS(=O)(=O)O)NC(=O)C(C(C)CC)NC1=O (centres undefined) | i | / | / | total CFTR fold 25 µM=1;total CFTR viability 25 µM=84
C[N+]1(C)CCC(OC(=O)C(O)(c2ccccc2)C2CCCC2)C1 (centres undefined) | i | / | / | total CFTR fold 25 µM=1.1;total CFTR viability 25 µM=85
O=S1(=O)CCCN1c1ccc(Br)cc1 | i | 1.2 | 88
O=C(CCc1cccs1)Nc1cn[nH]c1 | i | 0.92 | 90
COCCOc1ccc(S(=O)(=O)Nc2ccc(OC)c(NS(C)(=O)=O)c2)cc1 | i | 0.99 | 94
Cn1ncc2c(NCC(=O)NC(C)(C)C)ncnc21 | i | 1.1 | 91
CC(C)C(C)NC(=O)CSCc1nc2sc3c(c2c(=O)[nH]1)CCC3 (centres undefined) | i | 0.97 | 102
Cc1cn(C2C=CC(CO)O2)c(=O)[nH]c1=O (centres undefined) | i | / | / | total CFTR fold 25 µM=0.91;total CFTR viability 25 µM=76
COc1cc(OC)cc(C(=O)OC2CC(C)OC2=O)c1 (centres undefined) | i | 1 | 98
O=C(/C=C/c1cccc2c1OCO2)c1ccc(F)c(F)c1 | i | 0.75 | 44
CCOC(=O)N1CCC(NS(=O)(=O)c2ccc3c(c2)CCC(=O)N3)CC1 | i | 1 | 99
Cc1cc2nc(NCC(c3ccc(C)o3)N3CCOCC3)c3ccccc3n2n1 (centres undefined) | i | 1 | 94
O=C(/C=C/c1ccco1)NCCC(=O)NCC(F)(F)F | i | 0.99 | 96
CC1CCCCN1c1ccc(S(=O)(=O)N2CCCCC2)cc1[N+](=O)[O-] (centres undefined) | i | 0.85 | 82

Pulled by structure from the list above:
SMILES | total CFTR | total CFTR fold 10 ug/mL | total CFTR viability 10 ug/mL | others
Cc1cn(C2C=CC(CO)O2)c(=O)[nH]c1=O (centres undefined) | i | / | / | total CFTR fold 25 µM=0.91;total CFTR viability 25 µM=76
CCOC(=O)N1CCC(NS(=O)(=O)c2ccc3c(c2)CCC(=O)N3)CC1 | i | 1 | 99

Later entries:
SMILES | total CFTR | total CFTR fold 10 ug/mL | total CFTR viability 10 ug/mL | others
Cc1nn(C2CCS(=O)(=O)C2)c(C)c1/C=C/C(=O)c1cc2ccccc2o1 (centres undefined) | i | 0.94 | 89
CO[C@H]1CC(O[C@@H]2/C(C)=C/C[C@@H]3C[C@@H](C[C@]4(C=C[C@H](C)[C@@H](C5CCCCC5)O4)O3)OC(=O)[C@@H]3C=C(C)[C@@H](O)[C@H]4OC/C(=C\C=C\[C@@H]2C)[C@]43O)O[C@@H](C)C1O[C@H]1C[C@H](OC)[C@@H](O)[C@H](C)O1 (some centres undefined) | i | / | / | total CFTR fold 25 µM=0.73;total CFTR viability 25 µM=44
CC(=O)c1c(C)[nH]c(-c2csc(CC(=O)N(C)C)n2)c1C | i | 1.1 | 104
Cn1c(SCC#N)nc2scc(-c3cccs3)c2c1=O | i | 1.5 | 110
N#C/C(=C/c1ccco1)c1nc(-c2ccc3c(c2)OCCO3)cs1 | i | 1.2 | 94
COc1cc(C(C)=O)ccc1OCCCN1CCC(c2noc3cc(F)ccc23)CC1 | i | / | / | total CFTR fold 25 µM=1;total CFTR viability 25 µM=103
CC(OC(=O)c1ccc(S(=O)(=O)C(F)F)cc1)C(=O)C12CC3CC(CC(C3)C1)C2 (centres undefined) | i | 0.98 | 96
COc1ccc(Br)cc1CN(C)CN1C(=O)C(=O)N(C2CCCC2)C1=O | i | 0.96 | 92
Clc1ccc(CCC(Cn2ccnc2)Sc2c(Cl)cccc2Cl)cc1 (centres undefined) | i | / | / | total CFTR fold 25 µM=0.99&0.9;total CFTR viability 25 µM=84&93
C#CCNC(=O)CCc1nc2sc3c(c2c(=O)[nH]1)CCC3 | i | 1.1 | 88
CC1(C2CC2)NC(=O)N(CC(=O)NCCC2=CCCCC2)C1=O (centres undefined) | i | 1.1 | 99
CC(C)(C)N=C1NN=C(c2ccc3c(c2)NC(=O)CO3)CS1 | i | 0.91 | 92
Cc1cc(F)ccc1S(=O)(=O)N1CCN(S(=O)(=O)c2ccc3c(c2)OCCO3)CC1 | i | 1.1 | 90
O=C1CCC2(C(=O)Nc3cccc(-c4nnnn4C4CC4)c3)Sc3ccccc3N12 (centres undefined) | i | 1.1 | 93
CC(=O)Oc1cccc(O)c1 | i | / | / | total CFTR fold 25 µM=1.2;total CFTR viability 25 µM=111
N#Cc1ccc(S(=O)(=O)N2CCN(c3ccc4nnnn4n3)CC2)cc1 | i | 1 | 101
CC1CCC2(CC1)NC(=O)N(CN1CCOC(c3ccc(F)cc3)C1)C2=O (centres undefined) | i | 1 | 97
CC[C@@]1(O)C(=O)OCc2c1cc1n(c2=O)Cc2cc3c(CN(C)C)c(O)ccc3nc2-1 | 2.3 | / | / | total CFTR fold 25 µM=1.5&1.3&1;total CFTR viability 25 µM=77&78&108
CC(NC(=O)C1(C)CC1(Cl)Cl)c1cccs1 (centres undefined) | i | 0.96 | 96
O=C(CNC(=O)c1ccoc1)NC1CCCCCCC1 | i | 1.1 | 99
COc1ccc2cc1Oc1ccc(cc1)C[C@H]1c3c(cc4c(c3Oc3cc5c(cc3OC)CCN(C)[C@@H]5C2)OCO4)CCN1C | i | / | / | total CFTR fold 25 µM=1.1;total CFTR viability 25 µM=84
O=C1CCc2cc([N+](=O)[O-])c(F)cc2N1 | i | 1.1 | 103
Cc1ccc(C(=O)COC(=O)c2cc3ccccc3s2)s1 | i | 1 | 107
CC(NC(=O)C1(C)Cc2ccccc2C(=O)O1)c1ccc(-n2ccnc2)cc1 (centres undefined) | i | 1.1 | 85
OC(CCN1CCCCC1)(c1ccccc1)C1CC2C=CC1C2 (centres undefined) | i | / | / | total CFTR fold 25 µM=1.2;total CFTR viability 25 µM=94
CCOc1cc(C2/C(=C(\O)c3ccc(OC)c(C)c3)C(=O)C(=O)N2CCN(C)C)ccc1O (centres undefined) | i | 0.99 | 106
O=C(NCc1ccc(S(=O)(=O)N2CCCC2)s1)c1csc(-c2ccsc2)n1 | i | 0.98 | 90
O=S(=O)(c1ccc(Cl)c(Cl)c1)N1CCN(Cn2ccccc2=S)CC1 | i | 0.98 | 88
CC(C)c1ccc(C2C(C(=O)c3cccs3)=C(O)C(=O)N2CCN(C)C)cc1 (centres undefined) | i | 1 | 100
C=CCn1c(SCC)nnc1-c1ccc([N+](=O)[O-])cc1 | i | 1 | 88

Already shown: four of the compounds above.
SMILES | total CFTR | total CFTR fold 10 ug/mL | total CFTR viability 10 ug/mL | others
O=C(NCc1ccc(S(=O)(=O)N2CCCC2)s1)c1csc(-c2ccsc2)n1 | i | 0.98 | 90
O=S(=O)(c1ccc(Cl)c(Cl)c1)N1CCN(Cn2ccccc2=S)CC1 | i | 0.98 | 88
CC(C)c1ccc(C2C(C(=O)c3cccs3)=C(O)C(=O)N2CCN(C)C)cc1 (centres undefined) | i | 1 | 100
C=CCn1c(SCC)nnc1-c1ccc([N+](=O)[O-])cc1 | i | 1 | 88

(further entries)
SMILES | total CFTR | total CFTR fold 10 ug/mL | total CFTR viability 10 ug/mL | others
Clc1ccc(SCc2nc(Nc3ccc(Cl)cc3Cl)c3c4c(sc3n2)CCC4)cc1 | i | 1 | 97
N#Cc1ccc(CS(=O)(=O)NC2CCCC2)cc1 | i | 0.95 | 93
CCC1CN(C(=O)c2cc(C3CC3)[nH]n2)CCO1 (centres undefined) | i | 1 | 94
Cc1ccccc1N1C(=O)c2cc(S(N)(=O)=O)c(Cl)cc2NC1C (centres undefined) | i | / | / | total CFTR fold 25 µM=1.1&0.87;total CFTR viability 25 µM=92&103
Cc1ccc2c(CN3C(=O)NC(C)(CC(C)C)C3=O)cc(=O)oc2c1 (centres undefined) | i | 1.1 | 109
Nc1ccc(O)c(C(=O)O)c1 | i | / | / | total CFTR fold 25 µM=1.2&1&1;total CFTR viability 25 µM=92&93&81
CSc1nncn1-c1cccc(NS(=O)(=O)c2ccc(S(=O)(=O)N(C)C)cc2)c1 | i | 1.1 | 107
N#Cc1ccsc1NC(=O)CNCc1ccco1 | i | 0.95 | 90
c1ccc2sc(C3CCN(CCc4ccncc4)CC3)nc2c1 | i | 0.98 | 93
c1ccc2sc(NCC3(N4CCOCC4)CCCCC3)nc2c1 | i | 1.1 | 79
O=C1OCCC1Sc1nccc(C(F)(F)F)n1 (centres undefined) | i | 0.98 | 99
COc1ccc(S(=O)(=O)N2CCN(S(=O)(=O)c3ccc(S(N)(=O)=O)cc3)CC2)cc1 | i | 1.1 | 94
CS(=O)(=O)c1ccc(S(=O)(=O)N2CCCC2c2ccc3c(c2)OCCO3)cc1 (centres undefined) | i | 0.97 | 95
Cc1ccc(-c2csc(SCc3cn4cccc(C)c4n3)n2)cc1 | i | 1 | 92
CC1=CS(=O)(=O)c2ccccc21 | i | 1 | 83
Cn1ccnc1COc1ccc(CO)cc1 | i | 1.1 | 99
CCCC1NC(=O)N(CN2CCN(Cc3ccsc3)CC2)C1=O (centres undefined) | i | 1 | 100
COCCn1cc(C(=O)c2cc(Br)ccc2O)cc(C#N)c1=O | i | 1.1 | 101
Cc1nc(N(C)CC(=O)NC2CC2)c2c3c(sc2n1)CCCC3 | i | 0.98 | 91
Clc1ccc(-c2nc(Sc3ccccc3Cl)c3c4c(sc3n2)CCC4)cc1 | i | 1.1 | 91
